# Assay outcomes (PubChem)
# Lassa entry inh: Lassa virus entry inhibition. Lassa virus pseudotype entry inhibition, cell reporter; control for the full effect not named in the record. Potency, µM (titrated, usually from 37.9 µM), inactives show at the highest dose activity change, negative = inhibition, most hits filed as inhibitors. 300,000 compounds, 1.2% hits; active means well fitted inhibition curve with a large enough effect; inconclusive means small, poorly fitted or top-dose-only effect, or effect the other way; inactive means flat fitted curve, though single readings scatter; tested in HEK293 cells; note: % is set by controls: 0 for no effect and ±100 for the full control effect; nearly all actives have a fitted effect of over 50% in size; luciferase read-out
# SARS PLpro yeast: SARS-CoV PLP inhibition in yeast; AID 485353; 330,000 compounds, 0.19% hits; Potency, µM (top dose mostly 32.9 µM), without a hit: at the highest dose activity, positive = growth rescue; S. cerevisiae expressing SARS-CoV PLpro, growth rescue; control for the full effect not named in the record; note: 0% is about no effect; nearly all actives have a fitted effect of over 55% in size; growth read by luminescence after 48 h
# Marburg entry inh: inhibitors of Marburg virus binding or cell entry; AID 540276; 300,000 compounds, 1.8% hits; Marburg virus pseudotyped entry inhibition, cell reporter; control for the full effect not named in the record; about a third of the inactives were read at about 46 µM; Potency, µM (series often up to 37.8 µM), inactives show at the highest dose activity change, negative = inhibition, actives largely listed as inhibitors; active = well fitted inhibition curve with a large enough effect; inconclusive = small, poorly fitted or top-dose-only effect, or effect the other way; inactive = flat fitted curve, though single readings scatter; tested in HEK293 cells; about a fifth of its hits are not listed in these tables; note: % is set by controls: 0 for no effect and ±100 for the full control effect; luciferase read-out
# RE007 growth inh: less growth of the S. pombe RE007 Vpr strain; 360,000 compounds, 0.21% hits; Potency, µM (doses to about 92.2 µM), for inactives: top-dose activity change, negative = less growth; S. pombe RE007 Vpr strain, BacTiter-Glo ATP luminescence, 24 h; control for the full effect not named in the record; AID 651644; active = well fitted falling curve with a large enough effect; inconclusive = small, poorly fitted or top-dose-only effect; inactive = no such curve, though single readings can be large or run the other way;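 note: % is set by controls: 0 for no effect and ±100 for the full control effect; nearly all actives have a fitted effect of over 50% in size; the assay follows cell death caused by Vpr and the record does not say whether a fall means rescue or toxicity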
#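 Fission yeast strain RE007, carrying one chromosomally integrated HIV-1 vpr copy, was seeded at OD 0.01 in PMG+AL medium with 23 nL pinned compound. After 24 h at 30 °C and 99% humidity, viability was read by BacTiter-Glo luminescence.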
# Cruzain inh Det: inhibitors of Trypanosoma cruzi cruzain with detergent | P25779 | purified cruzain, Z-FR-AMC fluorescence, 0.01% Triton | Potency, µM, for inactives: max response, negative = inhibition, most hits filed as inhibitors | 200,000 compounds, 0.43% hits | AID 1478; active = well fitted curve in the direction sought with a large enough effect; inconclusive = small, poorly fitted or top-dose-only effect, or another doubt; inactive = no such curve, though single readings can be large; an effect the other way counts as inactive or inconclusive;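 note: plate controls were neutral wells for no effect and buffer without enzyme for full effect; nearly all actives have a fitted effect of over 40% in size; top concentration of the series not given in the record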
# Target sequence (P25779 123-467 limits assumed): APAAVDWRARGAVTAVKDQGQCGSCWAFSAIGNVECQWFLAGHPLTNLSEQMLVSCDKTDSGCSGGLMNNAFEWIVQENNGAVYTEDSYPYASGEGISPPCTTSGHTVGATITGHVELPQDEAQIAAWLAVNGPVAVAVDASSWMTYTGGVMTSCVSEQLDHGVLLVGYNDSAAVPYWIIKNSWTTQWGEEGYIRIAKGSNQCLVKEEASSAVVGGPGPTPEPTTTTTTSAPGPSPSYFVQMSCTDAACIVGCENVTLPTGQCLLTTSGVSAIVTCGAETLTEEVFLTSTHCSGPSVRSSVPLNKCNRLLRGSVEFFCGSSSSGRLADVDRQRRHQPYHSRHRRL
#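 Z-FR-AMC hydrolysis (2 uM substrate) by cruzain (1.5 nM) monitored kinetically at ex 360/em 450 nm after 15 min room-temperature compound exposure; 0.01% Triton X-100, pH 5.5, 5 mM DTT.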
# Cruzain inh noDet: cruzain (T. cruzi) inhibition without detergent; AID 1476; 200,000 compounds, 2.3% hits; P25779; purified cruzain, Z-FR-AMC fluorescence, no detergent; Potency, µM, for the others: max response, negative = inhibition, actives largely listed as inhibitors; active = well fitted curve in the direction sought with a large enough effect; inconclusive = small, poorly fitted or top-dose-only effect, or another doubt; inactive = no such curve, though single readings can be large; an effect the other way counts as inactive or inconclusive;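 note: plate controls were enzyme without inhibitor for no effect and buffer without enzyme for full effect; nearly all actives have a fitted effect of over 40% in size; top concentration of the series not given in the record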
#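 Purified cruzain at 1.5 nM, pre-incubated 15 min with compound at room temperature in 100 mM sodium acetate pH 5.5, 5 mM DTT, 0.00005% Triton X-100. Reaction started with 2 uM Z-FR-AMC; AMC fluorescence increase over 60 s gives rate.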
# StopGo reporter: FMDV 2A StopGo reporter, luciferase signal; 410,000 compounds, 1.2% hits; Potency, µM (top dose mostly 57.9 µM), for inactives: at the top dose signal change, negative = less light; AID 1159524; human cells with a luciferase reporter of 2A StopGo recoding; control for the full effect not named in the record; active = well fitted falling curve with a large enough effect; inconclusive = small, poorly fitted or top-dose-only effect; inactive = no such curve, though single readings can be large or run the other way; tested in HEK293T cells; note: % is set by controls: 0 for no effect and ±100 for the full control effect; nearly all actives have a fitted effect of over 45% in size; luciferase light after 4 h
# NS1 inh: blocks influenza NS1 protein function; S. cerevisiae slowed by influenza A NS1, growth recovery by OD600; 270,000 compounds, 0.4% hits; Potency, µM (doses to about 46.1 µM), inactives show top-dose activity, positive = more growth; AID 2326; note: actives are rising curves; nearly all actives have a fitted effect of over 50% in size
#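 S. cerevisiae expressing influenza A NS1, grown in glucose, washed, then diluted 1:100 into pH 6.0 -URA galactose medium with 23 nl compound. Growth recovery read as OD600; NS1-free strain serves as control.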
# An asterisk follows results filed as active; u = inconclusive; x = no result given; & = joins results of further samples; [ ] = dose if it differs, or a comment. Unless noted, calls come from the whole dose curve; as a rule, active means well fitted rising curve with a large enough effect; inconclusive means small, poorly fitted or top-dose-only effect; inactive means no such curve, though single readings can be large or run the other way. Potency is the fitted concentration of half-maximal effect.
SMILES,Lassa entry inh,SARS PLpro yeast,Marburg entry inh,RE007 growth inh,Cruzain inh Det,Cruzain inh noDet,StopGo reporter,NS1 inh
Cc1nc2ccc(NS(=O)(=O)c3ccc(F)cc3F)cc2s1,u,-5%,u,3%,x,x,-18%,x
Cc1ccc(OCC(=O)NNC(=O)C2CCN(c3ncnc4sc(C)c(C)c34)CC2)cc1,24%,-1%,-2%[46.1 µM],3%,x,x,u,x
COCCN(C(=O)COC(=O)c1ccc(C)o1)c1c(N)n(Cc2ccccc2)c(=O)[nH]c1=O,7%,-4%,1%,6%,x,x,-12%,x
CCOC(=O)c1c(-c2ccc(C)cc2)csc1NC(=O)C1CCCO1 (stereo unspecified),u,-42%,u,7%,-9.3%,u,u,-21%
O=[N+]([O-])c1ccc(/C=N/N2CCCCC2)cc1,x,-4%,x,-14%,x,x,40%[activator],3%
CCn1c(CCC(=O)O)nc2cc(S(=O)(=O)N(C)C)ccc21,14%[46.1 µM],3%,3%[46.1 µM],-2%,x,x,23%,x
Cc1cc(=O)oc2cc(OC(=O)CCN3C(=O)c4ccccc4C3=O)ccc12,14%,10%,-6%,9%,-11%,-4%,15%,14%
Fc1ccc(C(NCCc2ccc(Cl)cc2)c2nnc(-c3ccccc3)o2)c(Cl)c1 (stereo unspecified),10%[46.1 µM],x,-24%[46.1 µM],x,-5.5%,-16%,14%,x
CC(=O)Nc1cccc(NS(=O)(=O)c2cccc3nsnc23)c1,10%,2%,-4%,9%,3.7%,4%,-16%,-2%
CCOc1ccc(C(=O)NCC(=O)OCC(=O)Nc2ccc(C)c(S(=O)(=O)N(C)C)c2)cc1,2%[46.1 µM],-1%,2%[46.1 µM],20%,x,x,24%,-5%
Cc1cccc(C(=O)NNC(=O)c2ccco2)c1O,2%[46.1 µM],x,1%[46.1 µM],13%,x,x,18%,x
O=C1c2ccccc2-c2c1cccc2C(=O)N(CCO)CCO,6%,8%,6%,8%,-1.6%,-4%,2%,4%
Cc1cccc(NC(=O)C2C(c3ccccc3)C2(Cl)Cl)c1C (stereo unspecified),-13%,-2%,u,1%,-2.4%,-2%,u,-3%
Cc1ccc(NC(=O)c2c(C)oc3ccc(O)c(CN4CCN(Cc5ccccc5)CC4)c23)cc1,u,x,10µM*,x,-6.3%,-11%,-19%,x
N#Cc1nc(N)nc(N(c2ccccc2)c2ccccc2)n1,-27%,4%,u,16%,2.2µM*,1.6µM*,u,-13%
CNC(=S)N1CCN(C(=O)C2CCCO2)CC1 (stereo unspecified),8%,-6%,0%,0%,-1.7%,27%,-18%,26%
COc1ccccc1C(=O)C1CCCN(C(=O)c2ccccn2)C1 (stereo unspecified),-4%,1%,2%[46.1 µM],9%,x,x,10%,2%
CC(CN1CCOCC1)OC(=O)c1ccc(Br)cc1 (stereo unspecified),-4%,-35%,4%,u,-5.5%,3%,-16%,-140%
O=C(OCCN1CCN(C2=NS(=O)(=O)c3ccccc32)CC1)c1cccc(Br)c1,-18%,0%,u,1%,x,x,u,-14%
CCC1=C2CC[C@H]3C(=O)N(C)C(=O)[C@H]3[C@H]2[C@@]2(Cc3ccccc3)C(=NCCOC)OC(=O)N2C1=O,x,2%,x,-15%,0.9%,-1%,-10%,4%
O=C(Nc1ncccc1O)c1ccc2ccccc2c1,u,2%,u,u,x,x,-33%,-11%
CCc1ccc(-n2c(=O)c3c(C)c(C(=O)N(C)C)sc3n(Cc3cccc(C)c3)c2=O)cc1,6%[46.1 µM],x,x,x,3.8%,-2%,0%,x
COc1ccc(N(CC2CO2)S(=O)(=O)c2ccccc2)cc1 (stereo unspecified),-18%[46.1 µM],0%,18%[46.1 µM],3%,x,x,-3%,4%
CN(C)CCNC(=O)c1nn(C)c2c1CCc1ccccc1-2,x,0%,x,2%,x,x,-9%,6%
CC(C)Cn1c(=O)c2ccccc2n2c(CCC(=O)NCc3ccc(Cl)cc3)nnc12,x,x,-5%[46.1 µM],x,-0.7%,-7%,-6%,x
# (more compounds)
SMILES,Lassa entry inh,SARS PLpro yeast,Marburg entry inh,RE007 growth inh,Cruzain inh Det,Cruzain inh noDet,StopGo reporter,NS1 inh
CCc1c(C)sc2c1CCN(Cc1ccc(C#N)cc1)C2c1ccccc1 (stereo unspecified),u,x,x,x,-4.3%,-11%,-13%,x
CCOc1ccc(Nc2nc(N)c([N+](=O)[O-])c(NCc3ccccc3)n2)cc1,13%,1%,u,-7%,x,x,-8%,-4%
CCC(Oc1ccccc1)C(=O)Nc1ccc(OCc2cc(=O)n3ccc(C)cc3n2)cc1 (stereo unspecified),1%[46.1 µM],x,x,x,1.1%,-15%,-11%,x
COc1cccc(CN(C)C(=O)C23CC4CC(CC(NC(C)=O)(C4)C2)C3)c1OC,x,-2%,x,0%,x,x,3%,23%
Nc1nc(N)nc(-c2ccc([N+](=O)[O-])o2)n1,u,x,-6%[46.1 µM],-12%,x,x,-6%,x
Cn1nc(-c2ccccc2)cc1NS(=O)(=O)c1ccc(C#N)cc1,-24%,0%,5%[46.1 µM],13%,x,x,3%,3%
CCOC(=O)c1ccc(N(CC(=O)NC2CCCCC2)C(=O)CNC(=O)c2ccco2)cc1,-17%,7%,-2%[46.1 µM],-12%,x,x,8%,-15%
CC(C)Oc1ccc(C(=O)/C(=C\c2cccs2)c2nc3ccccc3o2)cc1,u,2%,u,-14%,-7.5%,u,-26%,21%
c1ccc(Cn2c(-c3ccco3)nc3nc4ccccc4nc32)cc1,u,0%,u,-5%,u,u,26%,-31%
CCC(C)n1c(S(=O)(=O)O)nc2ccccc21 (stereo unspecified),x,6%,7%,-9%,1.1%,-29%,u,1%
COc1ncnc(OC)c1S(=O)(=O)Nc1ccc(C(F)(F)F)cc1,x,2%,x,4%,x,x,60%[activator],5%
COc1cc(/C=N/Nc2ccccn2)ccc1O,u,0%,u,-17%,x,x,7%,0%
Cc1cc(C)c(NC(=O)CCCC(=O)O)c(Cl)c1,1%,-9%,0%,-5%,-1.9%,0%,-12%,7%
CCN(CC)c1ccc(NC(=O)CN2CCN(S(=O)(=O)c3ccc(C(C)C)cc3)CC2)cc1,u,x,x,x,2.3%,-2%,-20%,x
CCOc1ccc(S(=O)(=O)N(CC)CC(=O)NCc2ccncc2)cc1,4%,0%,1%,4%,x,x,0%,19%
CN(Cc1cc2cc(F)ccc2[nH]1)Cc1nc(-c2cnccn2)no1,u,0%,13%[46.1 µM],17%,x,x,-22%,0%
CCN(CC)c1ccc(/C=C2/C(=O)NC(=O)N(CC3CCCO3)C2=O)cc1 (stereo unspecified),-22%,-5%,4%,6%,-2.7%,0%,u,-8%
Cc1ccc2c(CC(=O)N3CCN(S(=O)(=O)c4cccs4)CC3)coc2c1,-14%,-12%,-18%[46.1 µM],-13%,-3.9%,-22%,u,-56%
COc1cccc(CN2CCN(c3nc4nonc4nc3N3CCCCC3)CC2=O)c1,x,0%,x,23%,x,x,19%,1%
CS(=O)(=O)N1CC(C(=O)NC2CCCC2)Oc2ccc(Cl)cc21 (stereo unspecified),-2%,1%,-20%,4%,-0.1%,-9%,0%,-4%
Nc1cccnc1Oc1ccc(F)cc1F,-4%,1%,1%,-5%,x,x,4%,1%
O=C1C(=NO)CC(c2ccccc2)N1c1ccccc1 (stereo unspecified),6%,x,19%,-17%,x,x,-24%,x
COc1cc(CCNC2=CC(=O)c3ncccc3C2=O)ccc1O,u,x,u,-15%,x,x,40µM*,x
COc1ccc(NS(=O)(=O)c2cccc(NC(=O)C3=NN(c4ccccc4)C(=O)CC3)c2)cc1,x,-1%,x,8%,x,x,u,-1%
N#Cc1cccc(NC(=O)COC(=O)CCc2ccc(S(=O)(=O)N3CCOCC3)cc2)c1,9%,1%,-10%,6%,x,x,-6%,x
# Next structures:
SMILES,Lassa entry inh,SARS PLpro yeast,Marburg entry inh,RE007 growth inh,Cruzain inh Det,Cruzain inh noDet,StopGo reporter,NS1 inh
CCOc1ccc(OCC)c(S(=O)(=O)NNC(=O)c2c(C)nc3ccccn23)c1,21%,20%,-19%,0%,-5.7%,-3%,-3%,7%
CC(C)(C)N(Cc1ccccc1)C(=O)c1ccc2c(c1)OCCO2,-14%,2%,-16%,0%,-4.9%,4%,-27%,-63%
CC1(C)CC(=O)C=C(NCCN2CCN(C(=O)Cc3ccc(Cl)cc3)CC2)C1,-9%,7%,7%[46.1 µM],14%,-2.0%,20%,-9%,-7%
COc1ccc(CCNC(=O)Cn2nnc(-c3cccs3)n2)cc1OC,9%,2%,0%,4%,4.1%,4%,x,-10%
NC1=NS(=O)(=O)NC1c1ccc(F)cc1 (stereo unspecified),18%[46.1 µM],2%,18%[46.1 µM],0%,x,x,19%,x
COc1ccccc1C1CCN(c2ccc(CO)cc2[N+](=O)[O-])CC1,u,-4%,u,u,x,x,-13%,-4%
O=C(COc1ccccc1)Nc1nnc(S(=O)(=O)N2CCCCCC2)s1,10%[46.1 µM],-8%,x,0%,-0.8%,7%,-2%&-8%,-9%
CCOc1ccc(S(=O)(=O)NCCC(=O)OCC(=O)N2CC(=O)Nc3ccccc32)cc1,17%,-5%,11%,17%,x,x,2%,x
O=C(Cc1ccc(Cl)cc1)Nc1ccc(NC(=O)c2ccccc2)cc1,u,5%,0%,3%,0.9%,25µM*,-6%,7%
CNC(=S)N(C)c1ccccc1,14%,7%,0%,-3%,-2.1%,13%,-4%,u
Cc1ccc(-c2nnc(-c3ccc4c(c3)OCO4)o2)cc1,4%,-1%,-20%[46.1 µM],4%,x,x,4%,-7%
CCCS(=O)(=O)Nc1ccc(Nc2c3ccccc3nc3ccccc23)c(OC)c1,0.71µM*,x,u,15%,x,x,-14%,x
CSc1ccc(CN2C(=O)NC3(CCCCCC3)C2=O)cc1,-4%,1%,u,-19%,x,x,u,x
CSc1ccccc1OCc1cc(C(=O)N(C)CC2COCCO2)no1 (stereo unspecified),u,4%,15%,-23%,x,x,17%,0%
Cc1ccc(S(=O)(=O)N2CCN(C(=O)c3ccc(N4CCCC4)c([N+](=O)[O-])c3)CC2)cc1,-3%,3%,-18%,-1%,x,x,-27%,19%

# Random draw from the library. About 4.7% of those tested had a hit in this group.
